# Screening data deposited in PubChem by National Center for Advancing Translational Sciences (NCATS).
# nsP2pro primary – Primary qHTS for inhibitors of NSP2Pro chikungunya virus (CHIKV); Polyprotein P1234 (Chikungunya virus (strain S27-African prototype)), Q8JUX6; FRET peptide cleavage, nsP2pro, fluorescence 1 h; Potency, µM (series often up to 24.9 µM), for the others: at the highest dose activity change, negative = inhibition, actives largely listed as inhibitors; hit rate 1.1% among 31,000; active means well fitted inhibition curve with a large enough effect; inconclusive means small, poorly fitted or top-dose-only effect; inactive means no such curve, though single readings can be large or run the other way; note: nearly all actives have a fitted effect of over 60% in size; a reference inhibitor and vehicle were the controls
# * hit, by the source's call; i = inactive; ? = inconclusive; & = joins results of further samples; [ ] = another dose, or the depositor's remark. % is set by controls: 0 for no effect and ±100 for the full control effect; potency is the fitted concentration of half-maximal effect.
no.	molecule	nsP2pro primary
1	CN(Cc1ccccc1)c1ncnc2c1nc1n2CCCC1	5.8%
2	O=C(c1ccc(F)cc1)N1CCN(c2nc3ncccc3o2)CC1	i
3	COc1cc(NC(=O)C(CCSC)NS(=O)(=O)c2ccc3c(c2)oc(=O)n3C)cc(OC)c1 (configuration not stated)	-3.4%
4	CCCCc1cc(C[C@H]2CNCC[C@H]2CC(=O)N2CCC(Cc3ccccc3)CC2)no1	-16.0%
5	COCC(=O)N1CCc2cc(-c3csc(NC(=O)c4cc(OC)cc(OC)c4)n3)ccc21	4.3%
6	CCOC(=O)c1c(NC(=O)COc2ccc(Cl)cc2C)sc(C(C)=O)c1C	7.6%
7	O=S(=O)(Nc1ccc(O)c(Sc2nc3ccccc3s2)c1)c1cc(Cl)ccc1Cl	-19.7%
8	COc1ccc(-c2nn(C)c3sc(C(=O)Nc4cc(OC)c(OC)c(OC)c4)cc23)cc1OC	395.9%[activator]
9	CNC(C)CC1CCCC1 (configuration not stated)	-3.8%
10	N#Cc1cc(-c2n[nH]c(-c3ccncc3)n2)ccn1	-22.0%&3.7%

# More compounds.
no.	molecule	nsP2pro primary
11	Cc1cccc(-c2ccc3ncnc(NCc4cccnc4)c3c2)c1	i
12	Cc1ccc(-c2cn3c(n2)sc2cc(C(=O)NCCC4=CCCCC4)ccc23)c(C)c1	-13.6%
13	c1ccc2c(CCNc3ccc(Nc4ccncc4)cc3)c[nH]c2c1	116.7%[activator]
14	Cc1nn(C)c(C)c1CCCN(C)C(=O)c1ccc2c(c1)C(O)CCCCCN2C (configuration not stated)	i
15	CSCCC(=O)N1CCc2c(ncnc2N2CCOCC2)C1	-17.6%
16	O=C(O)c1cnc(N2CCCCC2)nc1-c1ccncc1	-3.5%
17	COc1ccc(F)c(-c2nc(CN(C)CC3(CO)CC3)c(C)o2)c1	i
18	Nc1nc(-c2ccc(Cl)c(Cl)c2)c(-c2ccncc2)s1	-25.9%
19	O=C(c1ccc(C(F)(F)F)cc1)N1CC2CC(C1)[C@H]1CCCC(=O)N1C2 (some centres not stated)	-1.4%
20	C/C1=C\CC[C@]2(C)O[C@@H]2[C@H](O)[C@H](C(C)C)[C@H](OC(=O)/C=C/c2ccccc2)C1	3.0%

# Carrying on:
no.	molecule	nsP2pro primary
21	COc1ncccc1CNC[C@H]1O[C@@H]2C[C@@H](CC(=O)N3CCOCC3)O[C@@H]2[C@@H]1O	3.1%[39.2 µM]
22	C[C@H](O)[C@H](O)[C@@H](O)[C@@H](O)C=O	-11.7%
23	Cc1cccc(OCC(=O)N2CCCC(c3[nH]ccc3C(N)=O)C2)c1 (configuration not stated)	-17.8%
24	Cc1ccc(C)c(C(=O)COC(=O)CCCC(=O)Nc2cc(C(F)(F)F)ccc2Cl)c1	-13.4%
25	COc1ccc(NC(=O)c2ccc(NC(=O)CCS(=O)(=O)c3cccs3)cc2)cc1OC	-3.0%
26	Cn1nnnc1Sc1ncnc2scc(-c3ccccc3S(C)(=O)=O)c12	i
27	CCN(C(=O)CSc1nnc(-c2cc3occc3n2C)n1-c1ccccc1C)c1cccc(C)c1	-21.8%
28	O=C(Cc1ccccc1)Nc1nnc(-c2ccncc2)s1	-4.7%
29	c1cncc(-c2ccc(CNc3nc(C4CCCC4)nc4ccccc34)cc2)c1	4.9%
30	COc1ccc(-c2nc(SCC(=O)N3CCN(c4ccc(F)cc4)CC3)n[nH]2)cc1	-17.4%

# (continued)
no.	molecule	nsP2pro primary
31	Cc1cnc(-c2ccccc2C(C)C)nc1NCC1CCN(c2cnccn2)CC1	i
32	Cc1cc(Nc2ccccc2C(=O)O)ccc1Cl	3.51µM*
33	O=C(Nc1ncc([N+](=O)[O-])s1)c1cccs1	30.4%[activator]
34	NC(=O)C1CCN(C(=O)Cn2c(-c3cccs3)cc3ccccc32)CC1	-21.5%
35	CC(C)(C)OC(=O)N1CCN(c2ccc(NCc3ccc(-c4ccc(C#N)cc4)nc3)cc2)CC1	-0.2%
36	CCc1ccc(CN(Cc2ccco2)C(=O)c2ccc(OC)cc2)cc1	38.6%
37	Cc1nc2nc(C(F)(F)F)[nH]n2c(=O)c1Cc1ccccc1	-20.2%
38	Cc1cccc2sc(N(CCCN(C)C)C(=O)COc3ccccc3)nc12	-13.9%
39	Cc1cc(C)nc(NC(=S)N2CCN(c3cncs3)CC2)c1	2.2%
40	Cc1ccc(-c2cc(C(=O)Nc3ccc(C(=O)O)cc3)c3ccccc3n2)cc1C	i

# The list continues.
no.	molecule	nsP2pro primary
41	Cc1ccc2oc(-c3cc(NC(=O)c4oc5ccccc5c4C)ccc3Cl)nc2c1	-12.5%
42	FC(F)Oc1ccc(C2=Nn3c(nnc3-c3ccccc3Cl)SC2)cc1OCC1CC1	-5.4%
43	COc1ccc2cc1Nc1ccc(cc1)C[C@H](NCc1ccc(C)o1)C(=O)N(C)[C@H](C(=O)NCCC(C)C)C2	-23.1%
44	COc1ccc(-c2nc(-c3ccc(-c4cccc(Cl)c4)o3)[nH]c2-c2ccc(OC)cc2)cc1	18.8%
45	O=C(CNC(=O)c1ccc(-c2cccc(C(F)(F)F)c2)cc1)NCC(F)(F)F	i
46	COc1cc(OC)cc(C(=O)NCC2CCCN(C(=O)CCNC(C)=O)C2)c1 (configuration not stated)	i
47	Cc1cc(C)n(CCC(=O)N2CCC(C3CCN(S(C)(=O)=O)CC3)C2)n1 (configuration not stated)	i
48	CN1CCCCCC(O)c2cc(C(=O)N3CCN(c4ccc(F)cc4)CC3)ccc21 (configuration not stated)	-15.7%
49	CCN(C(=O)Cn1c(SCC(=O)NCc2ccccc2)nc2ccccc21)c1cccc(C)c1	-10.8%
50	COc1cccc(CNC(=O)Cc2csc3ccccc23)c1OC	-28.8%

# 2 compounds drawn at random from those above:
no.	molecule	nsP2pro primary
49	CCN(C(=O)Cn1c(SCC(=O)NCc2ccccc2)nc2ccccc21)c1cccc(C)c1	-10.8%
44	COc1ccc(-c2nc(-c3ccc(-c4cccc(Cl)c4)o3)[nH]c2-c2ccc(OC)cc2)cc1	18.8%

# Following part.
no.	molecule	nsP2pro primary
51	NCc1ccc(Oc2ccccc2)cc1	32.5%
52	CN(Cc1ccc(-c2ccc(C#N)cc2)o1)c1ccc(N2CCN(C(=O)OC(C)(C)C)CC2)cc1	-4.4%
53	O=c1[nH]c([C@@H]2CCCN2)nc2c1oc1ccc(Cl)cc12	?
54	Cc1ccc(-c2ccc(=O)n(CC(=O)N(C)C(C)C(C)C)n2)cc1 (configuration not stated)	-6.1%
55	CCN(Cc1ccccc1)C(=O)Cn1c(=O)n(-c2ccc(Cl)cc2)c(=O)c2c(C)c(C(=O)N(C)C)sc21	-7.9%
56	Cc1cccc(N2CCN(C(=O)c3ccc4c(c3)c(C)c(C)n4C)CC2C)c1 (configuration not stated)	-4.3%
57	CCc1cc(=O)[nH]c(N2CCOCC2)n1	1.7%
58	Cc1nc(N2CCC(C(=O)NC3CCC(C)CC3)CC2)cc(C(F)(F)F)n1 (configuration not stated)	i
59	CCn1c(SCC(=O)c2ccccc2)nnc1-c1cccc(Cl)c1	-19.1%
60	Cc1cccc(-c2cccc(CN3CCC(N[S+](=O)([O-])c4c(C)noc4C)CC3)c2)c1	i

# More structures:
no.	molecule	nsP2pro primary
61	COc1ccc(CN2CCc3ncc(C(=O)NCc4ccc5c(c4)OCO5)n3CC2)cn1	i
62	Cn1cncc1[C@@](N)(c1ccc(Cl)cc1)c1ccc2c(c1)c(-c1cccc(Cl)c1)cc(=O)n2C	60.6%&83.6%[activator]
63	Cc1nn(CC(=O)NCc2ccccc2Cl)c(=O)c2nn(-c3ccccc3)c(C)c12	-24.8%
64	CC(C)COC(=O)N1[C@@H](c2ccco2)[C@@H](CO)C[C@]12CCCCNC2=O	?
65	C#CC(C)(CC)OC(=O)c1ccccc1C(=O)O (configuration not stated)	-1.9%
66	COc1ccc(C(CNC(=O)c2ccc(F)cc2)N2CCCC2)cc1 (configuration not stated)	-1.2%
67	COc1ccc(CCNc2ncnc3onc(C)c23)c(OC)c1	0.4%
68	CSc1ccc(-c2cccc(C(=O)NCC(=O)N3CCOCC3)c2)cc1	-4.3%
69	Cn1cnc(CN=C2NC3=C(C(=O)CCC3)C(c3[nH]ncc3Cl)N2)c1 (configuration not stated)	?
70	O=[N+]([O-])c1cccc(CSc2nc3ncc(Br)cc3[nH]2)c1	-0.1%

# Part of the list above, as labelled records.
(66) COc1ccc(C(CNC(=O)c2ccc(F)cc2)N2CCCC2)cc1 (configuration not stated)
  nsP2pro primary = -1.2%
(67) COc1ccc(CCNc2ncnc3onc(C)c23)c(OC)c1
  nsP2pro primary = 0.4%
(68) CSc1ccc(-c2cccc(C(=O)NCC(=O)N3CCOCC3)c2)cc1
  nsP2pro primary = -4.3%
(69) Cn1cnc(CN=C2NC3=C(C(=O)CCC3)C(c3[nH]ncc3Cl)N2)c1 (configuration not stated)
  nsP2pro primary = ?

# Remaining list, next part:
no.	molecule	nsP2pro primary
71	CC(C)Cn1c(CNC(=O)OC(C)(C)C)nc2cccnc21	-10.7%
72	O=C(Nc1cccc2cccnc12)c1ccc(-c2cccc(Cl)c2)o1	-21.8%
73	COc1ccc(-n2nnnc2C2CCN(S(=O)(=O)c3ccc(NC(C)=O)cc3)CC2)cc1	1.0%
74	COc1cc(Cl)c(NC(=O)CN2C(=O)c3cccnc3Sc3ccccc32)c(OC)c1	-7.1%
75	CSc1ccc(CNc2ncnc3ccc(-c4c(C)noc4C)cc23)cc1	0.4%
76	CN(C)CC(=O)N1CCC[C@@H](n2nc(-c3ccc(Oc4ccccc4)cc3)c3c(N)ncnc32)C1	130.9%[activator]
77	CCc1ccccc1N(C)C(=O)c1cn(CC(C)C)c(=O)c2cc(OC)c(OC)cc12	-12.0%
78	O=C(O)Cn1nc(N2CCN(c3ccc(F)cc3)CC2)ccc1=O	-29.1%
79	Cc1ccc(N(C(=O)COc2ccccc2C)S(=O)(=O)c2ccc(Cl)cc2)cc1	-17.2%
80	O=C(O)c1ccc2c(c1)C(=O)N([C@@H](C(=O)O)C(c1ccccc1)c1ccccc1)C2=O	-19.5%

# More records:
no.	molecule	nsP2pro primary
81	O=C(NC[C@H]1OC[C@@H](NCc2ccccc2O)[C@@H]1O)c1ccc(F)cc1	3.9%[39.2 µM]
82	Cc1ccc(S(=O)(=O)N2CCc3nc(N(C)Cc4cccnc4)[nH]c(=O)c3CC2)cc1	1.3%
83	CC(C)Sc1ncc(Cl)c(C(=O)Nc2nc3ccc(S(C)(=O)=O)cc3s2)n1	-18.5%
84	Cc1cc(C)nc(NC(=S)N2CCN(c3cc(Br)cc(C(F)(F)F)c3)CC2)c1	-6.3%
85	CC(=O)O[C@@H]1[C@H]2CC[C@H]3[C@@](C)(O)[C@@H]4C[C@H](O)C(C)(C)[C@@]4(O)[C@H](O)C[C@@]13C[C@@]2(C)O	-11.2%[10 µM]
86	COc1cccc(CNC(=O)Nc2nc(-c3ccncc3)cs2)c1	106.5%[activator]
87	Cc1cccc(Cn2cccc(C(=O)Nc3cc(C)on3)c2=O)c1	-3.8%
88	COc1cccc(OC)c1-c1nc(C(=O)N[C@@H](CC(C)C)C(=O)O)cn1-c1ccnc2cc(Cl)ccc12	-12.5%
89	COCc1cc(C[C@@H]2CC[C@H](O)[C@@H](CNCc3ccc(Cl)cc3)O2)no1	-0.7%[39.2 µM]
90	CCC[C@@H]1CN(C(=O)CCn2cc(Cl)cn2)C[C@H]1C(=O)O	-0.2%

# (list continues)
no.	molecule	nsP2pro primary
91	FC(F)(F)c1ccccc1-c1nc(NCc2ccc(Br)cc2)c2ccccc2n1	-3.9%
92	CCOc1ccc(C(=O)Nc2ccc(-c3nc4ccccc4[nH]3)cc2)cc1	-10.3%
93	CC(C)NC(=O)N1CC[C@@H](CC(=O)O)[C@@H](CCN2C[C@@H]3C[C@H](C2)c2cccc(=O)n2C3)C1	-0.8%
94	CC(C)(C)OC(=O)Cc1nnc(-c2cc3ccccc3[nH]2)o1	-5.7%
95	CN(C(=O)c1cn2c(-c3ccc(C(F)(F)F)cc3)cnc2cn1)c1ccc(C#N)cc1	-5.8%
96	CC(=O)O[C@H]1[C@H](O[C@H]2CC[C@]34C[C@]35CC[C@]3(C)[C@@H]([C@@]6(C)CC[C@@H](C(C)(C)O)O6)[C@@H](O)C[C@@]3(C)[C@@H]5C[C@H](O[C@@H]3O[C@H](CO)[C@@H](O)[C@H](O)[C@H]3O)[C@H]4C2(C)C)OC[C@@H](OC(C)=O)[C@@H]1O	-20.4%
97	COc1cc(F)c(F)c(Nc2ccc(I)cc2F)c1NS(=O)(=O)C1(C[C@H](O)CO)CC1	?
98	O=S(=O)(c1cccc(F)c1)N1CC[C@@H]2COCCN(Cc3ccccc3)[C@@H]2C1	?
99	CC(C)N(Cc1ccccc1)C(=O)CN1C(=O)COc2ccc(S(=O)(=O)NC3CCCC3)cc21	-16.5%
100	CC1C(=O)OCC2=CC[N+]3([O-])CCC(OC(=O)C(C)(O)C1(C)O)C23 (configuration not stated)	-4.6%

# (further entries)
no.	molecule	nsP2pro primary
101	C=C(COC(=O)C(O)C(O)CN)C12OC1C1(C)C(=CC2=O)C(O)C(O)CC1C (configuration not stated)	-3.5%
102	COc1ccc(C2(O)c3ccccc3NC(=O)C2OC)cc1 (configuration not stated)	-4.5%
103	COc1ccc(C(=O)N[C@@H]2CCC[C@@H]2C(=O)N2CCSCC2)cc1	-1.4%
104	Cc1nc2ccccn2c1P(=S)(c1ccccc1)c1ccccc1	-17.0%
105	CCS(=O)(=O)N1CCC(CCOC)(NC(=O)C2CC2)CC1	-5.0%
106	CC(C)C(CO)Nc1nc(Nc2cc(N)cc(Cl)c2)c2ncn(C(C)C)c2n1 (configuration not stated)	7.2%
107	CCCCOC(=O)c1ccnc2cc(C(OCCN3CCCCC3)c3ccccc3Cl)sc12 (configuration not stated)	33.3%
108	CCOc1ccc(-c2cc(C(=O)N3CCN(c4cccc(C)c4)C(C)C3)c3ccccc3n2)cc1 (configuration not stated)	-29.1%
109	O=C1CCCC2=C1C(c1ccncc1)N=C(Nc1nc3ccccc3o1)N2 (configuration not stated)	i

# An excerpt; count on the stated rates, not on these rows.
